# Rango-impB inh: inhibitors of Rango-importin beta complex formation. Rango CFP/YFP FRET sensor + importin beta, 45 min. Potency, µM (highest dose often 92.2 µM), for inactives: at the top dose inhibition of complex formation. actives 0.031% (n = 340,000). AID 540263; active = rising FRET ratio curve, often small or poorly fitted; inconclusive = mostly compound fluorescence or quenching in the first reads; inactive = flat curves in all reads;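 note: potency is the fitted concentration of half-maximal effect; 0% = DMSO wells and 100% = buffer wells lacking importin beta; nearly all actives have a fitted effect of over 15% in size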
#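 Inhibition scored from the CFP 486 nm/YFP 530 nm FRET ratio 45 min after adding 0.125 microM importin beta to 50 nM Rango biosensor preincubated 5 min with compound (room temperature, PBS with DTT, Tween-20, BSA). No-importin wells as positive control.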
# Rango dissoc inh: prevents RanGTP from dissociating the Rango-importin beta complex. Biochemical FRET Rango-importin beta, RanGTP-induced dissociation. Potency, µM (doses to about 46.1 µM), inactives show at the top dose activity change, negative = inhibition. actives 0.071% (n = 340,000). AID 540253; active means falling FRET ratio curve, often poorly fitted, with flat reads before Ran was added; inconclusive means other falling curves, or compound fluorescence or quenching; inactive means flat or rising ratio curve;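 note: potency is the fitted concentration of half-maximal effect; % of control where 0% means no effect; nearly all actives have a fitted effect of over 45% in size; -100% = wells without RanGTP and RCC1; the record marks most hits as doubtful in a second field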
#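 Compounds sat 5 min at room temperature with 0.1 uM Rango biosensor plus 0.25 uM importin beta, then FRET pre-read. RanGTP-RCC1 (0.6 uM Ran, 2mM GTP, 0.2 uM RCC1) added for 45 min, and the CFP/YFP post-read measured blocked complex dissociation.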
# GLA inh pH 4.5: inhibitors of human alpha-galactosidase A at pH 4.5; activity change, negative = inhibition, % at 105 µM; P06280; 230,000 tested, under 10 active; AID 1467; purified enzyme, 4-MU-alpha-Gal fluorescence, pH 4.5; inconclusive = small, poorly fitted or top-dose-only inhibition, or a rising curve; inactive = flat fitted curve, though single readings scatter; no compound was filed as active;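 note: 0% = full activity with enzyme and -100% = basal without enzyme; dose as in the result columns while the protocol names 77 µM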
# Target sequence (P06280 whole entry, looked up): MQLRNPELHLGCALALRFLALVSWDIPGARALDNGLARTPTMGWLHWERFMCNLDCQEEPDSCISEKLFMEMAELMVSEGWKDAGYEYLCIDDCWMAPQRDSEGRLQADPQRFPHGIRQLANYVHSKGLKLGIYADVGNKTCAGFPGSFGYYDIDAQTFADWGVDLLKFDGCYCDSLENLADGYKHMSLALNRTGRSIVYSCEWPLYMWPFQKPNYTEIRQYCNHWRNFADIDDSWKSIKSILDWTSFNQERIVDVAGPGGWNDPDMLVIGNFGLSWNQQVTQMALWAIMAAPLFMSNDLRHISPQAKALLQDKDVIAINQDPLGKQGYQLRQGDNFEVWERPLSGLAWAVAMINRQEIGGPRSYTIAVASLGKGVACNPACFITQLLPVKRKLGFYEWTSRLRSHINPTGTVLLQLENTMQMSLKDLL
# miR-21 reporter: raises the signal of a miR-21 reporter; 340,000 tested, under 10 active; HeLa miR-21 FLuc reporter, luciferase, 48 h; Potency, µM (titrated, usually from 38.3 µM), inactives show at the highest dose reporter change, positive = more light; active = well fitted rising curve with a large enough effect; inconclusive = small, poorly fitted or top-dose-only effect; inactive = no such curve, though single readings can be large or run the other way;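 note: % of control where 0% means no effect; miR-21 action dims this reporter so a rising signal means less miR-21 action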
#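 HeLa miR-21-FLuc reporter line, endogenous miR-21; 2000 cells/well in DMEM/10% FBS; compound titration up to ~40uM final, 48 h, 37 degree Celsius; luciferase detection reagent, 15 min lysis, CCD luminescence.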
# * = called active by the depositor; u = inconclusive; x = not tested or not shown.
SMILES,Rango-impB inh,Rango dissoc inh,GLA inh pH 4.5,miR-21 reporter
CCCCN(C/C=C/c1ccccc1OC)Cc1ccccc1,-3.9%,3%,x,6%
CCc1ccc(N2CC(C(=O)Nc3ccc(S(=O)(=O)NCC4CCCO4)cc3)CC2=O)cc1 (configuration not stated),-0.2%,5%,x,16%
COc1ccc(NC(=O)C/C(C)=N/NC(=O)C(=O)NC(C)C)c(OC)c1,0.3%,13%,5,5%
CCCn1c(N)c(C(=O)CSc2nnc(-c3ccoc3C)n2C)c(=O)n(C)c1=O,1.4%,-18%,x,x
Cc1ccc(S(=O)(=O)N(C)CCCC(=O)N2CCN(C=O)CC2)cc1,2.7%,12%,-3,-6%
CN(CC(=O)NCC(=O)Nc1ccc(F)cc1)C1CCS(=O)(=O)C1 (configuration not stated),0.1%,9%,x,x
CCCCCn1c(=O)[nH]c2cc(C(=O)NCc3ccccn3)ccc2c1=O,-5.1%,14%,0,1%
CC(C)CNc1cc(Cl)c(S(=O)(=O)NCC(C)C)cc1C(=O)O,-4.1%,11%,-1,-3%
Cc1cc(Cl)c(S(=O)(=O)NCc2ccncc2)cc1OCC(N)=O,-1.9%,16%,-5,-1%
CCCCN1C(=S)NC[C@@H]1c1ccccc1,1.3%,9%,5,3%
CC(C)CN(CC(C)C)S(=O)(=O)N1CCC(C(=O)NCCc2ccc(Cl)cc2)CC1,12%,-9%,-2,8%
Cc1cc(C)n(Cc2nc3ccccc3n2C)n1,2.2%,4%,-5,-4%
CSc1ccc(-c2nnn(CC(=O)NCc3ccccc3)n2)cc1,0.4%,-6%,-12,9%
COc1c(C)cc(C(=O)C2CCCN(C(=O)c3cccc(-n4cccn4)c3)C2)cc1C (configuration not stated),3.3%,-6%,-14,-2%
CC1Cc2cc(/C(O)=C3/C(=O)C(=O)N(CCCn4ccnc4)C3c3cccnc3)ccc2O1 (configuration not stated),-4.2%,-2%,-9,3%
Cc1ccc(C(=O)c2c3ccc(C(F)(F)F)cc3[n+]([O-])n2CCCC(N)=O)cc1,-1.0%,-5%,x,x
Cc1ccc(NC(=O)CSc2nc(NS(=O)(=O)c3ccc(C)cc3)cc(=O)[nH]2)cc1,-2.3%,-1%,-13,-7%
Cc1cccc(NC(=O)CSc2nnc(-c3n[nH]c4ccccc34)o2)c1,u,-1%,-2,-50%
Cc1ccnc(NS(=O)(=O)c2ccc(NC(=O)C3CCCNC3=O)cc2)n1 (configuration not stated),5.5%,11%,11,-2%
O=C(NC1CCSc2ccccc21)c1cc([N+](=O)[O-])ccc1N1CCOCC1 (configuration not stated),-2.4%,17%,x,x
O=C(COC(=O)CNC(=O)c1ccco1)NCCN1C(=O)CSC1=O,1.2%,13%,2,0%
Cc1cc(N2CCN(C)CC2)nc2ccc(NC(=S)N3CCN(c4ccc(F)cc4)CC3)cc12,1.6%,6%,4,-10%
N#Cc1ccc(C(=O)N2CCN(c3ncccn3)CC2)cc1,1.1%,-1%,x,0%
O=C1CC(NCC2CCCO2)C(=O)N1c1ccc(Cl)cc1 (configuration not stated),-0.9%,-3%,3,4%

# Retrieved one by one from the entries so far:
SMILES,Rango-impB inh,Rango dissoc inh,GLA inh pH 4.5,miR-21 reporter
Cc1ccc(C(=O)c2c3ccc(C(F)(F)F)cc3[n+]([O-])n2CCCC(N)=O)cc1,-1.0%,-5%,x,x
O=C(NC1CCSc2ccccc21)c1cc([N+](=O)[O-])ccc1N1CCOCC1 (configuration not stated),-2.4%,17%,x,x
Cc1cc(N2CCN(C)CC2)nc2ccc(NC(=S)N3CCN(c4ccc(F)cc4)CC3)cc12,1.6%,6%,4,-10%
COc1c(C)cc(C(=O)C2CCCN(C(=O)c3cccc(-n4cccn4)c3)C2)cc1C (configuration not stated),3.3%,-6%,-14,-2%

# Next structures
SMILES,Rango-impB inh,Rango dissoc inh,GLA inh pH 4.5,miR-21 reporter
COc1cccc(-c2nc(-c3ccc(C(=O)O)cc3)no2)c1,0.1%,-8%,x,x
Cc1cc2occ(CC(=O)NNC(=O)c3ccccc3F)c2cc1C,-1.9%,-16%,x,-11%
COC(=O)c1noc(-c2ccc(OC)cc2)n1,1.3%,3%,-6,-3%
O=C1NCN(C2CCCCC2)CN1,-1.7%,6%,x,x
NC(=O)CC(NC(=O)c1cccc(Br)c1)c1ccc(NCCN2CCOCC2)c([N+](=O)[O-])c1 (configuration not stated),x,x,-19,-11%
CC(C)Cc1ccc(CN2CCCC(NC(=O)CCN3CCCCC3=O)C2)cc1 (configuration not stated),-0.3%,12%,x,-1%
CCN(CC(=O)NC1CCS(=O)(=O)C1)S(=O)(=O)c1cccc(C(C)=O)c1 (configuration not stated),-2.7%,-12%,-3,0%
COc1ccc(S(=O)(=O)NCC(c2ccc3c(c2)OCO3)N2CCN(c3ccccc3)CC2)cc1 (configuration not stated),0.4%,0%,x,x
COC(=O)c1sc2ccccc2c1NC(=O)c1cccs1,5.0%,5%,0,5%
CC1CCN(CC(=O)n2c3c(c4ccccc42)CCCC3)CC1,1.0%,5%,-1,9%
Cc1cc2c(cc1S(=O)(=O)N1CCN(c3ccccc3F)CC1)OCC(=O)N2,2.2%,-2%,x,-3%
COc1cc(C(=O)NCCOc2ccc(F)cc2)c(Br)c(OC)c1OC,3.0%,28%,3,-2%
CCOC(=O)C1=C(C)N=c2s/c(=C/c3ccc(OCC(=O)O)c(OC)c3)c(=O)n2C1c1ccc(Cl)cc1 (configuration not stated),u,u,x,x
COc1cc(C)ccc1OCc1cc(C(=O)NCCN2CCCC(O)C2)no1 (configuration not stated),-0.8%,0%,x,-5%
COc1ccc(S(=O)(=O)N2CCN(C(=S)NCCc3ccccc3)CC2)cc1,-1.6%,-3%,x,5%
Cc1ccc(S(=O)(=O)Nc2cccc(NC(=O)CN3CCCCC3)c2)cc1,-0.5%,-9%,-3,4%
CC1=CC(C)(C)N(S(=O)(=O)c2ccc(C)cc2)c2ccc(C)cc21,0.5%,-11%,-9,29%
Cc1cc2ccccc2c(=O)n1CC(=O)NC1CCCCCC1,-3.3%,-16%,-5,-2%
Cc1cc(=O)oc2c(C)c(OC(C)C(=O)NCC(O)c3ccccc3)ccc12 (configuration not stated),3.2%,1%,x,-1%
COc1ccc(CNC(=O)c2oc3ccc(S(=O)(=O)N4CCOCC4)cc3c2C)cc1,-6.2%,-12%,x,21%
Cc1ccccc1OCC(O)CN(Cc1ccccc1O)C1CCCCC1 (configuration not stated),-3.9%,-8%,-11,17%
Cc1ccccc1OCc1nc2ccccc2[nH]1,1.3%,-14%,1,-29%
CC1(C)CC(C(CC(=O)Nc2nccs2)c2ccccc2)CCO1 (configuration not stated),-6.9%,22%,-10,0%
O=C(CCCc1ccccc1)NCc1ccccc1,x,x,0,1%
CCOC(=O)c1c(NC(=O)/C=C/c2ccc(C)o2)sc(C)c1C,0.0%,u,-2,-7%
O=[N+]([O-])c1ccc2nc(NS(=O)(=O)c3ccc(Cl)cc3)sc2c1,u,-23%,x,-7%
CC(C)=CCOc1ccc2ccc(=O)oc2c1,-0.3%,27%,4,-42%
O=C(NCc1ccc(Cl)cc1)c1cc(-c2ccco2)on1,u,7%,-2,-11%
COc1ccccc1C(=O)Nc1ccnn1C1CCN(C(C)CSC)CC1 (configuration not stated),u,u,x,-6%
Cc1cccc(NC(=O)c2ccccc2NC(=O)CCC(=O)O)c1,-0.8%,7%,-1,-2%
Cc1nnc(SCc2ccc([N+](=O)[O-])cc2)o1,4.1%,-6%,-1,-5%
Cc1nc(CS(=O)(=O)c2ccccc2)cc(Sc2ccc(Cl)cc2)n1,-0.5%,20%,-7,-17%
C=CCn1c(/N=C/c2ccc(N(C)C)cc2)nc2ccccc21,u,u,-1,-3%
O=C(O)c1cccc(NC(=O)C2C3C=CC(C3)C2C(=O)O)c1 (configuration not stated),-0.3%,-9%,u,-8%
O=C(N1CCN(Cc2ccccc2)CC1)C12CC3CC(CC(C3)C1)C2,-4.4%,-1%,-12,-1%
CCCN1C(=O)SC(CC(=O)Nc2ccccc2)C1=O (configuration not stated),1.2%,12%,-11,1%

# Arranged by the number under Rango dissoc inh (largest number first): some entries from above.
SMILES,Rango-impB inh,Rango dissoc inh,GLA inh pH 4.5,miR-21 reporter
CC(C)=CCOc1ccc2ccc(=O)oc2c1,-0.3%,27%,4,-42%
CCCN1C(=O)SC(CC(=O)Nc2ccccc2)C1=O (configuration not stated),1.2%,12%,-11,1%
Cc1cccc(NC(=O)c2ccccc2NC(=O)CCC(=O)O)c1,-0.8%,7%,-1,-2%
Cc1nnc(SCc2ccc([N+](=O)[O-])cc2)o1,4.1%,-6%,-1,-5%
O=[N+]([O-])c1ccc2nc(NS(=O)(=O)c3ccc(Cl)cc3)sc2c1,u,-23%,x,-7%

# (continued)
SMILES,Rango-impB inh,Rango dissoc inh,GLA inh pH 4.5,miR-21 reporter
CC(=O)c1ccc(NC(=O)CSc2nnc(-c3ccco3)c(-c3ccco3)n2)cc1,-3.7%,10%,-8,0%
CC(C)(CC(=O)N1CCN(c2ccc(Cl)cc2)CC1)CC1=NS(=O)(=O)c2ccccc2N1,-3.3%,-9%,8,u
Cc1c(NC(=O)C(C)OC(=O)c2ccc([N+](=O)[O-])s2)c(=O)n(-c2ccccc2)n1C (configuration not stated),0.5%,8%,1,-2%
O=C(Nc1ccccc1Cl)c1ccc2nccnc2c1,-2.2%,1%,x,-36%
CCOC(=O)COc1cnc2ccccc2n1,-0.2%,-9%,8,-8%
CCOC(=O)COc1ccc(/C=C/[N+](=O)[O-])c(OCC(=O)OCC)c1,5.9%,5%,-6,u
Cc1cccc(NC(=O)CN(CCc2ccccc2)S(C)(=O)=O)c1,0.4%,-6%,x,10%
O=C(NCc1ccccn1)C1C2C=CC(C2)C1C(=O)Nc1ccc(F)cc1 (configuration not stated),-0.3%,3%,-3,-5%
CN1CCc2c(sc(/N=C/c3cc(C(C)(C)C)ccc3O)c2C#N)C1,u,-19%,0,-1%
O=C(COC(=O)Cn1cnc2ccccc2c1=O)NCCC1=CCCCC1,-1.4%,-1%,-4,5%
Cc1ccccc1S(=O)(=O)N1C[C@H]2CON(C)[C@H]2C[C@H]1c1cccc(-c2ccccc2)c1,-4.1%,12%,x,x
Cc1sc2ncnc(N3CCC(C(=O)N(C)CC(=O)Nc4ccccc4Br)CC3)c2c1C,0.2%,0%,x,21%
Cc1ccc(C)c(SCC(=O)OCC(=O)NCc2ccccc2)c1,-0.3%,18%,-3,-1%
COc1ccccc1NC(=O)C(C/C=C(/C)Cl)C(C)=O (configuration not stated),-0.6%,35%,2,0%
CC1=C(C)CC(C(=O)c2ccccc2)C(C(=O)O)C1 (configuration not stated),0.8%,0%,-2,0%
O=C(OCc1cc(=O)n2ccsc2n1)c1ccc(OC(F)F)cc1,0.4%,-15%,x,x
O=C(COC(=O)c1ccccc1NCCO)Nc1cccc(S(=O)(=O)NC2=NCCCCC2)c1,1.5%,9%,x,x
Nc1nnc(SCc2ccccc2F)s1,-2.8%,0%,0,-23%
O=C(c1ccc(Br)o1)N1CCN(C/C=C/c2ccccc2)CC1,-1.2%,2%,-3,-9%
Cc1cccc(N2C(=O)CC(N3CCC(c4nc5ccccc5[nH]4)CC3)C2=O)c1 (configuration not stated),5.5%,-18%,-6,2%
Cc1cc(-c2onc(C)c2C(=O)Oc2ccc(Cl)cc2)no1,0.9%,-15%,1,-2%
O=C(N/N=C/c1ccco1)c1cc(C2CC2)nc2ccccc12,x,x,7,11%
C[C@H](CO)N1C[C@H](C)[C@@H](CN(C)S(=O)(=O)c2ccc(F)cc2)Oc2ccc(NC(=O)NC3CCCCC3)cc2C1=O,-4.9%,0%,x,x
COc1ccc(CC(=O)NCc2cn3ccsc3n2)cc1,-1.7%,1%,5,-1%
Cc1[nH]c(SCC(=O)Nc2cc(C(N)=O)cc(C(N)=O)c2)nc1Cc1ccccc1,-2.0%,-8%,x,x
O=C1c2ccccc2C(=O)N1Cc1cc(-c2ccc(Cl)cc2)no1,1.2%,-2%,x,x
Cc1ccc(Sc2c(C=O)c3ccccc3n2C)cc1,-0.8%,-2%,-5,22%
CCn1ncc(Br)c1C(=O)Nc1cc([N+](=O)[O-])ccc1C,-1.2%,7%,0,1%

# A portion of the library; rates above refer to the full screens.
